HPGD inh – blocks human HPGD enzyme activity. Potency, µM, for the others: top-dose activity change, negative = inhibition, hits mostly inhibitors. AID 894. P15428. 4.3% of 150,000 active. purified HPGD, NADH fluorescence kinetic, PGE2 substrate; active = well fitted inhibition curve with a large enough effect (not every such curve was filed as active); inconclusive = small, poorly fitted or top-dose-only effect, or another doubt; inactive = no such curve, though single readings can be large or run the other way;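 note: top concentration of the series not given in the record; plate controls included wells without enzyme; inactives centre near -10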
Target sequence (P15428 whole entry, looked up): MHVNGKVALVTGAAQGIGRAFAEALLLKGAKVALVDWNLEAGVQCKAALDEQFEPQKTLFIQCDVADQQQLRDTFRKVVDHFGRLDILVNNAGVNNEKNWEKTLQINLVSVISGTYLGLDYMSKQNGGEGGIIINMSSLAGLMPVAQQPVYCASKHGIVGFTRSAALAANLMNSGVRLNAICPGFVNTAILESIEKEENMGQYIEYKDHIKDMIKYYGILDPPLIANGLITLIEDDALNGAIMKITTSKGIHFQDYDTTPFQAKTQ
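20 nM HPGD preincubated 15 min at room temperature with compound in 50 mM Tris-HCl pH 8, 0.01% Tween 20. Started with 1 mM NAD+ and 30 uM prostaglandin E2; NADH fluorescence (360/450 nm) read 5 times over 30-s intervals, last minus first.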
Active calls of the source: *; ? = inconclusive; & = joins results of further samples; ! = not active in a repeat. % is set by controls: 0 for no effect and ±100 for the full control effect; potency is the fitted concentration of half-maximal effect. Only part of the results is shown; the hit share may differ from the screen's.

Start of the listing, in advance, six compounds:
SMILES	HPGD inh
COC(=O)[C@]1(C)CC[C@@]2(C)CC[C@@]3(C)C4=CC=C5C(=CC(=O)C(O)=C5C)[C@@]4(C)CC[C@@]3(C)C2C1 (stereo not given in full)	20µM*
Oc1cc(Cl)c(Cl)c(Cl)c1	?
Cc1nc2sccc2c(=O)n1-c1ccccc1Cl	-11.7%
OCCNc1c2c(nc3ccccc13)CCCC2	-2.4%
CCCCOc1ccc(CN2CCN(CC)CC2)cc1	-1.0%
CN(C(=O)Oc1ccc([N+](=O)[O-])cc1)c1ccccc1	-5.0%

Main list, repeating the preview:
SMILES	HPGD inh
COC(=O)[C@]1(C)CC[C@@]2(C)CC[C@@]3(C)C4=CC=C5C(=CC(=O)C(O)=C5C)[C@@]4(C)CC[C@@]3(C)C2C1 (stereo not given in full)	20µM*
Oc1cc(Cl)c(Cl)c(Cl)c1	?
Cc1nc2sccc2c(=O)n1-c1ccccc1Cl	-11.7%
OCCNc1c2c(nc3ccccc13)CCCC2	-2.4%
CCCCOc1ccc(CN2CCN(CC)CC2)cc1	-1.0%
CN(C(=O)Oc1ccc([N+](=O)[O-])cc1)c1ccccc1	-5.0%
Cc1cc(-c2cc(C)c(N)c(C)c2)cc(C)c1N	-1.0%
C[C@]12CC[C@H](OS(=O)(=O)O)CC1=CCC1C2CC[C@]2(C)C(=O)CC[C@@H]12 (stereo not given in full)	5.0%
CC(=O)Nc1ccc(S(=O)(=O)NC(CC(=O)N2CCC3(CC2)OCCO3)C(C)C)cc1 (stereo not given)	2.7%
Clc1nc(Cl)nc(Cl)n1	-6.4%
COc1cc(Br)cc(CN2CCN(C)CC2)c1O	-5.2%
CN1[C@@H]2CCC[C@H]1CC(=O)C2	1.0%

Pulled by structure from the list above:
SMILES	HPGD inh
COc1cc(Br)cc(CN2CCN(C)CC2)c1O	-5.2%
Cc1cc(-c2cc(C)c(N)c(C)c2)cc(C)c1N	-1.0%
CN1[C@@H]2CCC[C@H]1CC(=O)C2	1.0%
OCCNc1c2c(nc3ccccc13)CCCC2	-2.4%
Clc1nc(Cl)nc(Cl)n1	-6.4%
C[C@]12CC[C@H](OS(=O)(=O)O)CC1=CCC1C2CC[C@]2(C)C(=O)CC[C@@H]12 (stereo not given in full)	5.0%

Later entries.
SMILES	HPGD inh
CCC(=NCCN1CCOCC1)c1c(O)n(-c2ccccc2C)c(=O)[nH]c1=O	-9.1%
COCC(=O)N1CCC2(CCCN(Cc3ccncc3)C2)CC1	-8.7%
CCCCN1C(=O)/C(=C/C=C/c2ccco2)C(=O)NC1=S	10µM*
C=CCn1c(O)c(C(C)=NCCc2ccccc2)c(=O)[nH]c1=O	-8.4%
CCCC[n+]1cc(/N=C(\[O-])OC)on1	-10.3%
O=C(O)COc1ccc(Cl)cc1Cl	-6.8%&-20.9%&-4.9%
Cc1c(C(=O)c2ccc3ccccc3c2)c2cccc3c2n1[C@H](CN1CCOCC1)CO3	3.8%
C=C(C)C1CCC(C)=CC1c1c(O)cc(O)cc1CCCCC (stereo not given)	-4.3%
CCCCC/C=C\C[C@@H](/C=C/C=C\C/C=C\CCCC(=O)O)OO	-5.1%
c1ccc(CCCN2CCN(CCOC(c3ccccc3)c3ccccc3)CC2)cc1	-9.5%&-4.1%
CCCCCCn1c(N)c(C(=O)NCCN2CCOCC2)c2nc3ccccc3nc21	?
CCN(c1ccc(C(O)(C(=O)OC)C(F)(F)F)cc1)S(=O)(=O)c1ccc(C)cc1 (stereo not given)	-7.2%
CCC[N+](=O)[O-]	-4.9%
CC(C)n1cc(C(=O)N(CC(=O)NC(C)(C)C)Cc2ccccc2)cn1	-11.2%
C=CCn1c(O)c(/C=C/C=Nc2ccccc2)c(=O)[nH]c1=O	-18.6%
CC1/C=C/C=C/CC/C=C/C=C/C=C/C=C/C(OC2OC(C)C(O)C(N)C2O)CC2O[C@](O)(CC(O)C(O)CCC(O)CC(O)CC(O)CC(=O)OC(C)C(C)C1O)CC(O)C2C(=O)O (stereo not given in full)	-5.9%
CCc1ccc(N2C(=O)NC(=O)C(CCc3ccncc3)(CCc3ccncc3)C2=O)cc1	-3.0%
COc1ccc(CCNc2oc(-c3ccc(OC)c(OC)c3)nc2P(=O)(OC)OC)cc1OC	?
CC(=O)OC1(c2ccccc2)CCN(C)C2CCCCC21 (stereo not given)	-7.9%
Cc1cccc(N2CCc3c2nc2ccccc2c3N)c1	?
Cc1cccc(-n2c(-c3cccs3)nc3ccccc3c2=O)c1	?
CCC(=NCC1CCCO1)c1c(O)n(-c2ccccc2)c(=O)[nH]c1=O (stereo not given)	0.7%
CCCCCC[N+](=O)[O-]	-6.9%
COc1ccc(CCn2c(O)c(C=NCCCN(C)C)c(=O)[nH]c2=O)cc1OC	3.3%
CC(=O)OCC(=O)[C@@H]1CC[C@H]2[C@H]3CC[C@H]4C[C@@H](O)CC[C@]4(C)[C@@H]3C(=O)C[C@@]12C	2.0%
CCN1C[C@@]2(OC(=O)c3ccccc3NC(C)=O)CCC(OC)[C@@]34C5CC6C(OC)C[C@@](O)(C(CC23)[C@@H]14)C5(O)C6OC (stereo not given in full)	-20.1%
CN1CCC23CCCC[C@H]2C1Cc1ccc(O)cc13 (stereo not given in full)	-15.8%
CCC(COC(=O)NC)NC(=O)Oc1ccccc1 (stereo not given)	-5.8%
COc1ccc(C(=O)C2CN(C)CC2C(=O)c2ccc(OC)cc2)cc1 (stereo not given)	-0.6%
O=C1C2CCN(CC2)C1Cc1ccc(OCCOc2ccccc2)cc1 (stereo not given)	-9.6%
CCCC[N+]1(C)C2CC(OC(=O)C(CO)c3ccccc3)CC1C1OC12 (stereo not given)	-2.8%
CC(C)(C)c1o[nH]c(=O)c1CC(N)C(=O)O (stereo not given)	-6.7%
COc1ccc(-n2c(=O)[nH]c3ccccc3c2=O)c(OC)c1	-11.6%
CC1CC2(O)c3nonc3CCC2N1O (stereo not given)	-5.1%
CC(C)N1C(=O)CC2(CC[N+](C)(CCOC(=O)C(O)(c3ccccc3)c3ccccc3)CC2)C1=O (stereo not given)	-5.2%
C#CCN(C)C(C)Cc1ccccc1 (stereo not given)	0.2%&9.0%
NCCc1c[nH]c2ccc(O)cc12	-12.4%&-5.3%&-4.5%
CC1CN=C(NCc2ccccc2)S1 (stereo not given)	-14.6%
COc1ccc(CC2NCC(O)C2OC(C)=O)cc1 (stereo not given)	-7.9%
O=CN1CC2CC(C1)c1cccc(=O)n1C2 (stereo not given)	1.8%
Cc1ccc2c(c1)C1CN(C)CCC1N2C(=O)c1ccco1 (stereo not given)	-17.6%
COc1ccc2c(c1)c(C(=O)CN1CCN(C)CC1)c(C)n2Cc1ccccc1	-18.1%
Cc1ccc(C(=O)n2cc(CCN3CCS(=O)(=O)CC3)c3ccccc32)cc1	-3.7%
COC(=O)C1=CCCN(C)C1	-11.5%&-8.8%&-2.3%
CCCC(C)C1(CC)C(=O)NC(=Nc2ccc(OC)cc2)NC1=O (stereo not given)	-6.4%
c1ccc2c(c1)OC[C@@H](C1=NCCN1)O2	1.4%&4.0%
CCCCn1c(O)c(C=NC2CCCCC2N)c(=O)[nH]c1=O (stereo not given)	-19.4%
CNC1[C@@H](O)C(OC2C(N)C[C@H](N)[C@@H](O[C@@H]3OC(C(C)O)C(O)C(O)C3N)C2O)OC[C@]1(C)O (stereo not given in full)	-7.4%
Cc1cccnc1-n1c(-c2ccccc2)nc2ccccc2c1=O	1.5%
CN(C)C(=O)Oc1cc(OC(=O)N(C)C)cc(C(O)CNC(C)(C)C)c1 (stereo not given)	-15.8%
CNC(=O)OCc1n(C)cc[n+]1C	-7.5%
CN(C)C(=O)NC(O)C(Cl)(Cl)Cl (stereo not given)	-5.2%
CC(C)(c1ccc(OC[C@@H]2CO2)cc1)c1ccc(OC[C@H]2CO2)cc1	12.6µM*
C=C/C(=C/C(=O)C[C@H](C)C[C@@H](C)CC[C@H](O)[C@H](C)C(=O)C[C@@H](O)[C@H](C)[C@@H](C)OC(=O)C[C@@H](O)C1=C(C)C(=O)OC1=O)CC	2.82µM*
CCCCCCn1c(=O)c(C(=O)Nc2ccncc2)c(O)c2ccccc21	-19.6%
CC1(C)COC(Nc2cccc(Cl)c2)=N1	?
COc1ccc(OP(=O)(Nc2ccccc2)Nc2ccccc2)cc1	14.1µM*
COc1ccc(C(=O)OC2C[C@H]3CC[C@@H](C2)N3C)cc1OC (stereo not given in full)	-1.8%
Cc1ccc(-c2n[nH]c(=S)n2-c2ccccc2)cc1	?
CC(C)(O)/C=C\C(=O)[C@](C)(O)[C@H]1[C@H](O)C[C@]2(C)[C@@H]3CC=C4[C@@H](C=C(O)C(=O)C4(C)C)[C@]3(C)C(=O)C[C@@]12C	-9.9%

Carrying on:
SMILES	HPGD inh
CCOC(=O)C1=C(C)OC(N)=C(C#N)C12C(=O)Nc1ccc(C)cc12 (stereo not given)	-8.9%
COc1ccc2c3c([nH]c2c1)C(C)=NCC3	?
CCCCN1CCC(C#N)(Nc2ccccc2)CC1	-1.0%
COc1ccccc1-n1c(O)c(C=Nc2c(C)n(C)n(-c3ccccc3)c2=O)c(=O)[nH]c1=O	-7.1%
CC(C)[C@@H]1CN[C@H](C(=O)O)[C@@H]1CC(=O)O	-6.3%
O=C(CCCN1CCC2(CC1)C(=O)N(Cc1cccc(F)c1)CN2c1ccccc1)c1ccc(F)cc1	-8.8%
CN(C)C1C(=O)C(C(N)=O)=C(O)[C@@]2(O)C(=O)C3=C(O)c4c(O)cccc4[C@@](C)(O)C3CC12 (stereo not given in full)	-20.7%
CCC(C)NC(=O)c1c(N)n(Cc2ccc3c(c2)OCO3)c2nc3ccccc3nc12 (stereo not given)	?
CC(C)C1C(=O)N2CCCC2[C@]2(O)O[C@@](NC(=O)[C@@H]3C=C4c5cccc6[nH]cc(c56)C[C@H]4N(C)C3)(C(C)C)C(=O)N12 (stereo not given in full)	?
CCCCC/C=C\C/C=C\C/C=C\C/C=C\CCCC(=O)Nc1ccc(O)cc1C	?
COc1cc2c(cc1OC)[C@@H]1C(=O)c3ccc(O)c(CC=C(C)C)c3OC1CO2 (stereo not given in full)	-1.1%
COC(=O)C12CC3=CCC4C(=O)N(c5ccccc5)C(=O)C4C3Cc3ccccc3[C@@H]1CNC2=O (stereo not given in full)	-3.2%
NC1CC1c1ccccc1 (stereo not given)	-3.6%
Cc1cc2c(C(C)C)c(O)c(O)c(C=O)c2c(O)c1-c1c(C)cc2c(C(C)C)c(O)c(O)c(C=O)c2c1O	8.91µM*!
C=C1C([C@@]2(C)C(OC(C)=O)CC(=O)O[C@@](C)(COC(C)=O)C2CC(=O)OC)C(OC=O)C(OC(=O)C(OC(C)=O)C(C)CC)[C@]2(C)C(c3ccoc3)CC(=O)C12O (stereo not given in full)	-11.6%
O=c1[nH]c(=O)n(CCC2=CCCCC2)c(O)c1C=NCc1cccnc1	-13.9%
O=C1NC(=O)C(CCc2ccncc2)(c2ccccc2)C(=O)N1	2.0%
FC(F)(F)c1ccc2c(c1)ncn2C1CCN(Cc2nnnn2C2CCCCC2)CC1	?
O=c1[nH]c(=O)n(CCc2ccccc2)c(O)c1C=NCc1ccc2c(c1)OCO2	-15.7%
O=C(c1cc(Br)ccc1Cl)N1CCC2(CC1)OCCO2	-17.8%
CC(C)=CC1C(C(=O)OCc2cccc(Oc3ccccc3)c2)C1(C)C (stereo not given)	-9.9%
COc1ccc(C(CC(=O)N2CCC3(CC2)OCCO3)NS(=O)(=O)c2ccc(OC)cc2)cc1 (stereo not given)	-0.9%
Cc1cc(C)c(C2=NOC(O)(C(F)(F)F)C2)c(=O)[nH]1 (stereo not given)	-14.3%
CN(C)c1ccc2c(c1)N=C(c1ccco1)OP2(=S)N1CCOCC1 (stereo not given)	17.8µM*
O=P(O)(O)C#Cc1ccccc1	-3.2%
O=C(O)COc1cc(Cl)c(Cl)cc1Cl	-12.2%
CC[N+](CC)(CC)CCCCCCCCCC[N+](CC)(CC)CC	-3.5%
C[C@]12CC[C@@H]3[C@@H](CCC4=CC(=O)CC[C@@H]43)[C@@H]1CC[C@@H]2OC(=O)CCc1ccccc1	-8.0%
O=[N+]([O-])NC1=NCN(Cc2ccco2)CN1Cc1ccco1	-8.9%
CC(N)[C@@H](O)c1ccccc1 (stereo not given in full)	-2.6%
CC(=NCc1ccc(F)cc1)c1c(O)n(C)c(=O)n(C)c1=O	-3.9%
Cn1c(O)c(C(c2ccccn2)c2c(O)n(C)c(=S)[nH]c2=O)c(=O)[nH]c1=S	-7.6%
CN(C)c1ccc(/C=C2/C(=O)NC(=O)N(Cc3ccco3)C2=O)cc1	10µM*
CC(C)(O)C(Cl)(Cl)Cl	-1.6%
Cc1ccc(Cn2nnnc2CN2CCC(n3nnc4ccccc43)CC2)cc1	-11.3%
COc1ccc2c(c1)CC1(CN2C)C(=O)NC(=O)N(c2ccc(F)cc2)C1=O (stereo not given)	-10.4%
C[N+](C)(C)CC#CCN1CCCC1=O	-19.9%&-1.3%
CC(Cc1ccccc1)[n+]1cc(/N=C(\[O-])Nc2ccccc2)on1 (stereo not given)	-4.4%
COC(=O)C12CC3=CC(CC3=O)Cc3ccccc3[C@@H]1CNC2=O (stereo not given in full)	-2.4%
O=C(Cn1cnc2ccccc2c1=O)NCCC(=O)N1CCC2(CC1)OCCO2	-0.9%
Cc1cc(C)nc(-n2c(C)nc3cc(Cl)ccc3c2=O)c1	-8.5%
C=CCn1c(O)c(C(CC)=Nc2ccc(N(CC)CC)cc2)c(=O)[nH]c1=O	-27.9%
O=C1NC(=O)N(c2ccccc2)C(=O)/C1=C\c1ccc2c3c(cccc13)CC2	?
Cc1[nH]n(-c2ccccc2)c(=O)c1C(c1cccc([N+](=O)[O-])c1O)c1c(C)[nH]n(-c2ccccc2)c1=O	28.2µM*
